Source: PubChem BioAssay
Mtb bLac sens = beta-lactam sensitization of Mtb H37Rv; M. tuberculosis H37Rv growth with meropenem, percent inhibition; hits of this screen are not shown here; hit rate 0.27% among 330,000; inhibition, % at 25 µM; AID 434955;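 active means about 74% or more and at least 40 points above the plate without the antibiotic, then above 30% in a dose series; inconclusive means first-round hits that could not be retested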;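 further: growth measured after seven days incubation then overnight dye step; 0% = bacteria only wells and 100% = bacteria with antibiotic; twin plates without the antibiotic show which effects depend on it; some results filed as inactive read as strong as hits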
Starred values were filed as active, the others as inactive; ? = inconclusive. A portion of the library, so the mix of outcomes need not match the whole.

The opening six entries, to show the layout:
| Structure | Mtb bLac sens |
| --- | --- |
| Cc1ccc(S(=O)(=O)NCC(=O)OCCOc2ccccc2F)cc1 | 5.2 |
| CC1CCC2(CC1)NC(=O)N(CC(=O)NC(C)c1ccc(F)c(F)c1)C2=O (stereo not given) | -1.8 |
| COc1ccc2c(COC(=O)[C@H](C)NS(=O)(=O)c3ccccc3F)cc(=O)oc2c1 | -0.2 |
| COc1ccc(S(=O)(=O)N(C)C[C@H]2Oc3ccc(NC(=O)Cc4cn(C)c5ccccc45)cc3C(=O)N([C@@H](C)CO)C[C@@H]2C)cc1 | 7.9 |
| CC(=O)Nc1c(O)nc(SCC(=O)N2CCCCC2)[nH]c1=O | -8.0 |
| Cc1ccccc1SCC(=O)NNC(=O)c1ccncc1 | -9.4 |

The list itself, from the start:
| Structure | Mtb bLac sens |
| --- | --- |
| Cc1ccc(S(=O)(=O)NCC(=O)OCCOc2ccccc2F)cc1 | 5.2 |
| CC1CCC2(CC1)NC(=O)N(CC(=O)NC(C)c1ccc(F)c(F)c1)C2=O (stereo not given) | -1.8 |
| COc1ccc2c(COC(=O)[C@H](C)NS(=O)(=O)c3ccccc3F)cc(=O)oc2c1 | -0.2 |
| COc1ccc(S(=O)(=O)N(C)C[C@H]2Oc3ccc(NC(=O)Cc4cn(C)c5ccccc45)cc3C(=O)N([C@@H](C)CO)C[C@@H]2C)cc1 | 7.9 |
| CC(=O)Nc1c(O)nc(SCC(=O)N2CCCCC2)[nH]c1=O | -8.0 |
| Cc1ccccc1SCC(=O)NNC(=O)c1ccncc1 | -9.4 |
| Cc1cc(-c2nnc(CCC(=O)NCc3cc(F)cc(C(F)(F)F)c3)o2)no1 | -5.9 |
| CC1(C)CC(=O)c2c(O)cc(OCC(=O)Nc3ccc(S(N)(=O)=O)cc3)cc2O1 | -7.8 |
| CC(C)(C)c1nnc2sc(SCC(=O)N3CCCCC3)nn2c1=O | -2.8 |
| O=C1c2ccc(-c3ccc(Cl)c(C(F)(F)F)c3)cc2S(=O)(=O)c2cccc(C(=O)N3CCN(c4ncc(Br)cn4)CC3)c21 | 5.4 |
| O=C(O)COc1ccccc1/C=N/NC(=O)Cc1ccccc1 | -4.3 |
| N#Cc1ccccc1S(=O)(=O)N1CCN(C(=O)[C@@H]2CCCN2C(=O)c2cccs2)CC1 | -2.4 |
| Nc1c(N(CCC2=CCCCC2)C(=O)COc2ccc(F)cc2)c(=O)[nH]c(=O)n1Cc1ccccc1 | 5.0 |
| Cc1ccc(NC(=O)CN(C)S(=O)(=O)c2cccs2)c(Br)c1 | 0.5 |
| CC1(C)CC(=O)C=C(CN2C(=O)c3ccccc3C2=O)C1=O | -14.0 |
| CSc1ccccc1NC(=O)c1ccc(N2CCCC2=O)cc1 | 2.1 |
| CCOc1ccc(NC(=O)CN(C)C(=O)c2cc(C)nc3ccccc23)cc1OCC | 3.2 |
| CN(Cc1ccccc1)C(=O)COC(=O)c1cc(=O)[nH]c2ccccc12 | -8.1 |
| COCCN(Cc1nc2ccccc2c(=O)[nH]1)C(=O)COc1cccc(C(C)=O)c1 | -8.4 |
| CN(Cc1ccccc1)C(=O)c1ccc(NC(=O)Cc2cccc([N+](=O)[O-])c2)cc1 | 7.7 |
| C[C@H](CO)N1C[C@H](C)[C@@H](CN(C)C(=O)Nc2ccc3c(c2)OCO3)Oc2c(NC(=O)Nc3ccccc3)cccc2C1=O | 5.8 |
| COc1ccc(-c2cc3cc(F)ccc3cn2)cc1 | 3.5 |
| CC(C)(C)[C@@H]1COC(=O)[C@H](Cc2ccc(F)cc2)CC/C=C\C[C@H](CC(=O)N(CCO)Cc2ccccc2)C(=O)N1 | 3.2 |
| CCc1noc(C)c1C(=O)Nc1nc2c(F)cc(F)cc2s1 | 0.6 |
| O=C(CSc1n[nH]c(=O)[nH]c1=O)Nc1c(Cl)cc(Cl)cc1Cl | -1.2 |
| C=C/C(C)=C/C[C@H]1C(=C)CCC2[C@](C)(C(=O)O)CCC[C@@]21C (stereo not given in full) | -5.0 |
| CCOC(=O)c1[nH]cnc1C(=O)N1CCN(C(=O)OC(C)(C)C)CC1 | -7.3 |
| CN(CC(=O)Nc1ccccc1Br)C(=O)CN1CCN(Cc2cccc(Cl)c2)CC1 | 0.9 |
| COc1ccc(OC)c(/C=C/C(=O)c2ccc3c(c2)OCO3)c1 | 60.7 |
| CC(=O)N1CCc2[nH]c3ccc(C)cc3c2C1 | -6.0 |
| Cc1nc2ccc(NS(=O)(=O)c3ccc(F)cc3F)cc2s1 | -0.3 |
| CCOC(=O)c1c(NC(=O)COC(=O)c2ccccn2)sc(C)c1C | 11.3 |
| Cc1ccc(OCC(=O)NNC(=O)C2CCN(c3ncnc4sc(C)c(C)c34)CC2)cc1 | 11.6 |
| N#Cc1cccc(NC(=O)COC(=O)CCc2ccc(S(=O)(=O)N3CCOCC3)cc2)c1 | -3.8 |
| CCCN(C(=O)c1c(-c2ccccc2)noc1C)c1c(N)n(Cc2ccccc2)c(=O)[nH]c1=O | -5.9 |
| O=C(CNC(=O)c1ccc2ccccc2c1)Nc1ncccc1O | -5.1 |
| CSCCC(NC(=O)CCNC(=O)c1ccccc1Cl)c1nc2ccccc2[nH]1 (stereo not given) | -2.2 |
| CCN(C[C@H]1N[C@@](C)(C(=O)OC)[C@H]2C(=O)N(Cc3ccccc3)C(=O)[C@@H]12)S(=O)(=O)c1ccc(C)cc1 | -4.4 |
| C[C@H](CO)N1C[C@H](C)[C@@H](CN(C)S(=O)(=O)c2ccc(F)cc2)Oc2ccc(NC(=O)C3CCCCC3)cc2C1=O | -2.4 |
| CC(C)Cn1nc(C(=O)Nc2cccc(S(=O)(=O)N3CCCC3)c2)c2ccccc2c1=O | -5.7 |
| O=C(CN1CCN(S(=O)(=O)c2ccc(C(F)(F)F)cc2)CC1)N1CCNC1=O | 1.9 |
| CCc1ccc(C(=O)Nc2ccc(OC)c(S(=O)(=O)N3CCCCC3)c2)cc1 | -4.1 |
| O=C(Nc1c(Cl)cccc1Cl)C1CCN(C(=O)c2cccs2)CC1 | -11.0 |
| O=C(c1ccco1)N1CCC(c2nc3c(nnn3Cc3ccc(F)cc3)c(=O)[nH]2)CC1 | 6.0 |
| O=C1CCCN1c1ccc(C(=O)N(Cc2nnc(-c3ccccc3Cl)o2)C2CC2)cc1 | -6.9 |
| Cc1cccc(C)c1OCC(=O)NCC1COc2ccccc2O1 (stereo not given) | 0.1 |
| COc1cccc(CNC(=O)c2ccc(Cl)c(S(=O)(=O)N3CCOCC3)c2)c1 | 5.8 |
| Cc1ccc(NC(=O)c2nc[nH]c2C(=O)NC2CCN(C(=O)OC(C)(C)C)CC2)cc1 | 6.2 |
| COc1ccc(C2CCCCCN2Cc2nc3ccccc3c(=O)n2CC(N)=O)cc1 (stereo not given) | 4.1 |
| CCOc1ccccc1N1CCN(C(=O)c2ccc(S(=O)(=O)Nc3ccccc3)cc2)CC1 | 47.3 |
| C[C@H](CO)N1C[C@H](C)[C@@H](CN(C)S(=O)(=O)c2cccs2)Oc2ccc(NC(=O)C3CC3)cc2C1=O | 1.3 |
| Cc1ccc(-n2ncc3c(=O)[nH]c(SCC(=O)N4CC(=O)Nc5ccccc54)nc32)cc1 | 0.3 |
| Cn1cncc1C#Cc1c(-c2ccc(S(C)(=O)=O)cc2)sc2ccccc12 | 7.1 |
| Cc1noc(C)c1COC(=O)c1cc(S(=O)(=O)N2CCOCC2)ccc1F | -1.9 |
| Cc1cc(=O)oc2cc(NC(=O)COc3ccccc3[N+](=O)[O-])ccc12 | -0.9 |
| COc1ccc(CNC(=O)CN(C(=O)c2csnn2)c2ccc(F)cc2)cc1 | -1.2 |
| Cc1cc(S(=O)(=O)Nc2ccc(C(=O)NCC3CCCO3)cc2)ccc1F (stereo not given) | -1.8 |
| CCCCn1c(N)c(N(CC)C(=O)C2CCN(C(=O)c3ccccc3C)CC2)c(=O)[nH]c1=O | 0.9 |
| C=CC[C@@H](Cc1ccc(F)cc1)C(=O)OC[C@@H]1CCCN1C(=O)[C@H](CC=C)CC(=O)NCCO | -0.2 |
| N#Cc1ccc(OCC(=O)OCC(=O)c2ccccc2)cc1 | 0.5 |

Next structures.
SMILES	Mtb bLac sens
COc1ccccc1CN(C)C(=O)c1cccc(S(=O)(=O)N2CCCC2)c1	0.2
C=CCOCCn1[nH]c2ccccc2c1=O	-1.0
Cc1sc2nc(CN3CCCC3)nc(N3CCN(S(=O)(=O)c4cccc(F)c4)CC3)c2c1C	-0.8
C[C@H](CO)N1C[C@H](C)[C@@H](CN(C)S(=O)(=O)c2ccccc2)Oc2c(NC(=O)Cc3ccccc3)cccc2C1=O	-4.2
CCC(NC(=O)CCC(=O)N1CCN(S(=O)(=O)c2ccc(C)cc2)CC1)c1ccc(C)cc1 (stereo not given)	-8.2
O=C(CSc1ccccc1F)NC(=O)c1ccc(Cl)cc1	2.3
O=[N+]([O-])c1ccc(NS(=O)(=O)N2CCOCC2)cc1	-13.6
O=C(Cc1cccc([N+](=O)[O-])c1)Nc1cccc(C(=O)N2CCCCC2)c1	4.5
Cc1ccc(OCCC(=O)NNC(=O)c2ccccc2F)cc1	33.3
CC(=O)c1c(C)[nH]c(C(=O)OCC(=O)NCc2ccc(Cl)cc2)c1C	-2.3
N#CCC(=O)Nc1ccc(C(=O)OCC(=O)N2CCN(C(=O)c3ccco3)CC2)cc1	-9.9
Cc1ccc(S(=O)(=O)c2nc(-c3ccccc3)oc2N2CCCC2)cc1	-9.8
COc1cc(/C=C2\CCCc3c2nc2ccccc2c3C(=O)O)cc(Cl)c1O	-2.9
CC(NC(=O)CNC(=O)c1sc2ccccc2c1Cl)c1cccnc1 (stereo not given)	-11.1
Cc1ccc(/C=N/NC(=O)c2cc3c(s2)CCCC3)o1	-1.4
CC1CCCCC12NC(=O)N(CC(=O)OCC(=O)NCc1ccc(F)cc1)C2=O (stereo not given)	1.0
O=C(Nc1nc(-c2cccnc2)cs1)c1ccc([N+](=O)[O-])cc1	2.5
Cc1csc(=O)n1CCC(=O)NCc1ccc(F)cc1	-3.9
Cn1cnnc1SCC(=O)Nc1ccc(S(=O)(=O)N2CCOCC2)cc1	-1.9
O=C(COC(=O)c1ccc(O)cc1O)c1ccc2c(c1)OCCO2	93.5
Clc1cc(Cl)c(Cl)cc1Cl	0.4
COc1ccc(-c2csc(NC(=O)CCNC(=O)c3ccco3)n2)cc1OC	20.1
CC(C)Cn1c(N)c(C(=O)COC(=O)c2cc(S(=O)(=O)N3CCOCC3)ccc2Br)c(=O)n(C)c1=O	-7.4
CCCCn1c(N)c(N(C)C(=O)c2cc3c(F)cccc3s2)c(=O)[nH]c1=O	-3.1
C=CCn1c(SCC(=O)c2ccc(O)c(O)c2)nnc1-c1ccc(OC)cc1	2.7
O=C1NC(Cc2ccc(O)cc2)c2nc3ccc(Cl)cc3c(=O)n2-c2cc(Cl)ccc21 (stereo not given)	-1.6
CN(C)C1=NCCN1CCCC1CCCCC1	2.3
COc1cccc(C(=O)OCC(=O)c2c(N)n(C)c(=O)n(C)c2=O)c1	-0.8
CCc1ccc([C@@H]2CC=C(C(=O)O)CN2S(=O)(=O)c2ccc(C)cc2)cc1	-0.6
COc1ccc(OC)c(NC(=O)COC(=O)CCc2nc3ccccc3c(=O)[nH]2)c1	-11.1
O=C(Nc1ccc(S(=O)(=O)N2CCCCC2)cc1)c1ccc(Cl)nc1	0.7
COc1ccc(S(=O)(=O)NCc2ccccn2)c(C)c1C	-13.6
COc1cccc(NC(=O)COC(=O)c2c(C)noc2C)c1	-6.9
COc1ccc(-n2c(SCC(=O)NC3CC3)nc3ccccc3c2=O)cc1OC	-5.0
CC1CN(C(=O)c2ccccc2OCc2ccccc2Cl)CC(C)O1 (stereo not given)	2.7
O=C(Cc1ccccc1[N+](=O)[O-])NCCCc1ccccc1	-2.6
COc1ccccc1[N+](=O)[O-]	-8.3
CN(C(=O)c1ccccc1C(=O)OCC(=O)c1ccc(F)cc1)c1ccccc1	1.1
C/C(=N\Nc1ccc(S(=O)(=O)N2CCCCC2)cn1)c1cccc(Br)c1	92.2
Cc1ccc(SCC(=O)OCC(=O)NCCc2ccc(S(N)(=O)=O)cc2)c(C)c1	6.3
CC1(NC(=O)CCS(=O)(=O)c2ccc(Cl)cc2)CCS(=O)(=O)C1 (stereo not given)	0.4
Cc1ccc(C2(c3ccc(C)cc3)NC(=O)N(CC(=O)NCCCN3CCCC3=O)C2=O)cc1	-2.4
COc1ccccc1NC(=O)c1cnc(SC)nc1	-3.7
O=C(C1=C(O)C(=O)N(CCCn2ccnc2)C1c1ccc(F)cc1)c1ccco1 (stereo not given)	?
COC(=O)C1=C(c2ccc(F)cc2F)C[C@@H]2CC[C@H]1N2C(=O)NC1CC1	-7.4
C/C(CC(=O)Nc1ccc(C)c(Cl)c1)=N\NC(=O)c1ccccn1	98.3
CCNC(=O)N(CC)C[C@H]1N[C@@](C)(C(=O)OC)[C@H]2C(=O)N(Cc3ccccc3)C(=O)[C@@H]12	-3.1
CN(CC(=O)Nc1ccc(F)cc1)C(=O)COC(=O)c1cccc(N(C)C)c1	9.4
O=C(CN1C(=O)NC2(CCCCCC2)C1=O)NCCc1ccccc1	2.7
O=C1NC[C@@H](c2ccccc2)OC(=O)[C@H](Cc2ccc(F)cc2)C/C=C\C[C@H]1CC(=O)N(CCO)Cc1ccccc1	-10.4
Cc1cccc(Oc2ccccc2NS(=O)(=O)c2ccc(CCC(=O)O)cc2)c1	-1.8
Cc1ccc(CNC(=O)COC(=O)c2ccc(S(=O)(=O)N3CCOCC3)cc2)cc1	-6.2
COc1ccc(C(=O)NCC(=O)OCCOc2ccc(Cl)cc2)cc1OC	-3.7
COc1ccc(CCNS(=O)(=O)c2ccc3[nH]c(=O)[nH]c3c2)cc1	-11.9
Cc1ccc(S(=O)(=O)N2CCCC2)cc1C(=O)NCc1ccccc1CN1CCCC1	4.2
CN(Cc1ccc(Cl)s1)C(=O)CSc1nnc(C2CC2)n1C1CC1	3.5
CCN(CC)C(=O)c1[nH]cnc1C(=O)NC1CCN(C(=O)OC(C)(C)C)CC1	5.9
CC1CCCCC12NC(=O)N(CC(=O)NCCc1ccc(F)cc1)C2=O (stereo not given)	-8.0
CC(C)c1ccc(C2(C)NC(=O)N(CC(=O)NC3(C#N)CCCC3)C2=O)cc1 (stereo not given)	-8.4
Cn1c(SCC(=O)N2CCCC2=O)nc2ccccc2c1=O	-8.6
CCCCC(CC)COC(=O)C(C#N)=C(c1ccccc1)c1ccccc1 (stereo not given)	-0.8
